# 26S disassembly – inhibitors of ATP-driven 26S proteasome dissociation, primary screen, biochemical, bead-based flow cytometry, GFP-tagged proteasome; anti-FLAG beads, GFP-proteasome disassembly; inhibition of disassembly, % (concentration not given with the values); actives 0.2% (n = 24,000);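 active means above 40%; inconclusive means likely self-fluorescent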;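 further: plate controls were ATP control with full disassembly for no effect and ATP-gamma-S intact proteasomes for full effect; higher percent means more bead fluorescence retained so stronger block of disassembly; stock transfer was 100 nL into about 10 µL; wells with too few beads may also be inconclusive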
# VCAM-1 rise – enhancers of VCAM-1 display on endothelial cells, cell-based, plate reader, pooled HUVEC, TNFa stimulus (AID 455) | HUVEC TNFa-induced VCAM-1 immunofluorescence, plate reader; numbers were filed only for top-ranked candidate wells | augmentation, % at 5 µM | actives 0.2% (n = 10,000);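 active means a compound raising TNF-alpha-driven VCAM-1 surface staining, with its hit status upheld on visual or statistical review; inactive means the rest, including hits rejected on review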;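 further: 0% = TNFa with vehicle and 100% = strongest image-checked hit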
# The depositor's hits bear a star; i = inactive; ? = inconclusive; · = no result given. These rows are one share of the data; count on the stated rates, not on these rows.
26S disassembly,VCAM-1 rise,structure
-0.3,·,CC1CCCN(C(=O)CSCC(=O)N=c2sc3ccccc3n2C)C1 (stereo not given)
-0.3,·,NC(=O)c1cc(Cl)cn(-c2ccccc2)c1=O
-0.5,·,Cc1cccc(-c2nc(CSCC(=O)N3CCN(c4ccccn4)CC3)c(C)o2)c1
2.2,·,CCCCN(CC)C(=O)Cc1c(C(=O)O)[nH]c2ccc(Cl)cc12
0.2,·,COc1cc(NC(=O)CN2CCN(c3ccccc3F)CC2)cc(OC)c1
-0.4,·,CCN1CCCC1CNC(=O)C(NC(=O)C1CCC(C)CC1)C(C)C (stereo not given)
-0.8,·,CCN1C2=NCCCN2c2cc(C)c(C)cc21
0.1,·,COCCCNC(=O)CCn1c(=O)c2ccccc2n(CC(=O)Nc2c(C)cccc2C)c1=O
-2.1,i,O=C1C2CC=C(Cl)CC2C(=O)N1c1ncn[nH]1 (stereo not given)
-0.4,·,CN1CCN(C(=O)C2CCCCC2C(=O)O)CC1 (stereo not given)
-1.0,·,Cc1cccc(C)c1NC(=O)C(c1ccccc1)N1CCC2(CC1)OCCO2 (stereo not given)
-0.6,i,CC(=O)N1c2c(cc(Br)cc2S(=O)(=O)N2CCN(c3ccccn3)CC2)CC1C (stereo not given)
-2.2,·,O=C(CSCc1cnn(-c2ccccc2)c1-n1cccc1)NCc1ccc2c(c1)OCO2
1.6,·,Cc1oc(-c2ccccc2F)nc1CN1CCC(C(=O)NCCC2=CCCCC2)CC1
-0.8,i,CCOC(=O)c1ccc(N2C(=O)CC(NC3CCN(C(=O)c4ccc(F)cc4)CC3)C2=O)cc1 (stereo not given)
1.4,·,CCOc1cccc2c1OC1(C)CC2NC(=O)N1c1ccc(OC)cc1 (stereo not given)
0.7,i,CC(=O)c1sc(NC(=O)C2COc3ccccc3O2)nc1C (stereo not given)
-0.3,·,CC(C)CNC(=O)c1noc2c1CCCC2
1.3,·,Cc1cc(C)cc(NC(=O)CCn2ccnc2C)c1
2.0,·,COc1ccc(C2=NOC(C(=O)NCc3ccco3)C2)cc1OC (stereo not given)
-1.7,·,CCOC(=O)c1sc(=S)n(-c2cccc(OC)c2)c1N
-0.7,i,O=C(CSc1nnc(Cn2c(=O)sc3ccccc32)n1-c1ccccc1)NCC1CCCO1 (stereo not given)
-0.8,·,CC(C)(C)n1nc2c(c1NC(=O)c1cccs1)CS(=O)C2 (stereo not given)
0.6,·,Cc1noc(NS(=O)(=O)c2ccc(N/C=C/C(=O)c3ccc4c(c3)OCO4)cc2)c1C
3.5,i,CCOC(=O)/N=C(/NC(=O)Nc1ccc(C(=O)OCC)cc1)OC
?,i,CCCC(OC(=O)CN1C(=O)COc2ccccc21)C(=O)NC1CCCC1 (stereo not given)
-3.3,i,COc1cc(S(=O)(=O)N(C)C)ccc1F
2.7,·,CC1CCN(C(=O)CSc2nnc(CNC(=O)c3ccco3)o2)CC1
0.4,·,O=C(CCN1C(=O)COc2ccccc21)NCc1cccs1
2.1,·,COc1ccccc1-c1cc(C(=O)NCCN2CCOCC2)no1
1.1,i,COCC(=O)N(C)c1nnc(-c2ccccn2)s1
-0.3,i,O=C(NCCC1=CCCCC1)C1CC(=O)N(C2CCCCCC2)C1 (stereo not given)
0.1,i,Nc1nonc1NC(=O)CSc1nc2ccccc2s1
-0.8,i,COC(=O)Cn1cnc2c(nnn2-c2ccc(C)cc2)c1=O
1.9,i,O=C(CSc1nc2ccccc2c(=O)n1Cc1ccco1)NCc1ccccc1
0.6,·,O=C(NCc1ccccn1)/C(=N/O)c1ccccc1
0.1,·,Cc1ccc(-n2ncc3c(=O)n(CC(=O)NC4CCCCC4)cnc32)cc1
3.8,·,CCC1CCCCN1CCNC(=O)CNS(=O)(=O)c1ccc2nc(C)sc2c1 (stereo not given)
0.9,·,CCCS(=O)(=O)N1CCC(C(=O)NC2CCC(C)CC2)CC1 (stereo not given)
1.9,i,Cc1ccc(CNC(=O)CSc2n[nH]c(N)n2)cc1
1.7,i,COc1ccccc1C1C(C#N)=C(N)Oc2cc(C)n(Cc3ccccn3)c(=O)c21 (stereo not given)
-0.9,·,COc1ccc(NC(=O)c2nc3nc(C)cc(C(F)F)n3n2)cc1OC
-1.1,·,O=C(c1noc2c1CCCCC2)N1CCOCC1
-0.6,i,O=C(/C=N/O)Nc1cccnc1
0.3,·,CC(NC(=O)CN1CCN(Cc2ccc(Cl)cc2)C1=O)c1ccc2c(c1)OCCO2 (stereo not given)
0.7,·,Cc1c(C(=O)N2CCN(Cc3ccccc3)CC2)sc2ncnc(N3CCOCC3)c12
2.2,·,O=C(CN1CCOc2ccccc21)NCc1cccs1
?,i,Cc1ccc(S(=O)(=O)c2nc(-c3ccco3)oc2SCC(=O)NCC2CCCO2)cc1 (stereo not given)
-1.3,i,COc1cc2[nH]c(=O)c(C(=O)NCCCN3CCCCC3)c(O)c2cc1OC
3.1,·,CCCNC(=O)C(Cc1ccccc1)NS(=O)(=O)c1ccc2c(c1)CCC(=O)N2 (stereo not given)

# Continuation.
26S disassembly,VCAM-1 rise,structure
2.3,i,COc1ccccc1C(=O)NCCc1nc2ccccc2n1C
-2.6,i,Oc1ccc2[nH]cnc2c1CN1CCCCC1
1.5,i,COc1ccccc1-n1c(SCC(=O)NC(C)(C)C)nnc1-c1ccco1
3.6,i,Cc1ccc2cc(C(c3nnnn3C3CCCC3)N3CCN(c4ccc(F)cc4)CC3)c(=O)[nH]c2c1 (stereo not given)
-1.4,i,Cc1nn(C)c(C)c1NC(=O)CCSc1nc(-c2ccco2)cc(C(F)(F)F)n1
0.5,i,COc1ccc(C)cc1NC(=O)CN1CCN(S(=O)(=O)c2ccc(Cl)cc2)CC1
0.2,·,CSc1sc(C)cc1C1C(C#N)=C(N)N(c2cccnc2)C2=C1C(=O)CC(C)(C)C2 (stereo not given)
-1.4,i,Cc1cc(C)c2c(N)c(C(=O)c3ccccc3)oc2n1
0.0,i,CC1=C(C(=O)NC2CCC(C)CC2)C2(CCC(C)CC2)OC1=O (stereo not given)
4.8,·,O=C(NCCCN1CCCC1)c1cccc(N2CCCC2=O)c1
1.0,i,CC(C)(C)c1ccc(OCC(=O)O)cc1
-0.4,·,COCCCNC(=O)C1C2C=CC3(CN(Cc4ccc(C)cc4)C(=O)C13)O2 (stereo not given)
1.9,·,Cc1nc2nc(C)c(CCC(=O)N3CCc4ccccc43)c(C)n2n1
0.1,·,CCOC(=O)N1CCC(Nc2c(NCCN3CCN(Cc4ccccc4)CC3)c(=O)c2=O)CC1
0.3,·,CCC(=O)N1c2ccc(S(=O)(=O)CCC(=O)Nc3nccs3)cc2CC1C (stereo not given)
-0.5,i,COC(=O)c1cccc(NC(=O)CSc2nnc(COc3ccc(C#N)cc3)n2-c2ccccc2)c1
0.8,i,CC1(C)CC(=O)C2=C(C1)N(CC1CCCO1)C(=O)C2(O)C(F)(F)F (stereo not given)
2.0,i,O=S(=O)(Nn1cnnc1)c1ccccc1Cl
1.8,i,CCN(CCCNC(=O)c1cn(CC)c2ccc(S(=O)(=O)N(C)C)cc2c1=O)c1cccc(C)c1
-1.2,i,CCN(CC)CCNC(=O)c1ccc(N2CCCCC2)c(NS(=O)(=O)c2ccc(C)cc2)c1
1.4,i,CCN1C(=O)/C(=C2\C=Cc3ccccc3N2CC)OC1=S
-0.9,·,O=C(Cc1ccc(-n2c(=O)[nH]c3ccccc3c2=O)cc1)N1CCN(c2ccccc2)CC1
-6.3,·,Cn1c(Cn2c(=O)sc3ccccc32)nnc1SCc1ccccc1
-1.7,i,COc1cc(CC(=O)Nc2ncc(C)s2)cc(OC)c1OC
-0.4,·,Cc1ccc(NC(=O)CNS(=O)(=O)c2cccs2)cc1F
0.1,·,CCOC(=O)Cn1c(=O)n(Cc2ccco2)c(=O)c2ccc(C(=O)NCCc3ccccc3)cc21
-2.6,i,Cc1noc(NS(=O)(=O)c2ccc(N3C(=O)c4ccccc4C3=O)cc2)c1C
-0.7,·,O=C(CCCn1c(SCC(=O)NC2CCCC2)nc2ccccc2c1=O)NCC1CCCO1 (stereo not given)
-3.9,·,CN(C)C(=O)c1nnc(Cc2ccc(Cl)cc2)o1
-0.1,i,COC(=O)c1c(-c2ccc(F)cc2)noc1N
0.4,·,CCOC(=O)C1(N(CC)CC)Sc2cc(C)ccc2NC1=O (stereo not given)
0.1,i,COc1cccc(-c2cc(C(=O)NCc3ccc(Cl)cc3)no2)c1
5.1,i,Cn1cccc1Cc1nnc(SCC(=O)Nc2ccc(F)cc2F)n1-c1ccc(F)cc1
-1.7,i,CC(C)C(=O)Nc1ccc2c(c1)nc1n2CCSC1
1.3,·,O=C(NCc1ccc(F)cc1)C1CCN(S(=O)(=O)N2CCCCC2)CC1
-1.2,·,CCOC(=O)N1CCC(n2c(SCC(=O)Nc3nccs3)nc3ccsc3c2=O)CC1
-0.5,i,CCOc1ccccc1C1CC(c2ccc(Br)cc2)Nc2nc(N)nn21 (stereo not given)
1.5,·,Cc1ccc(CN2C(=O)CCC2C(=O)NC(C)C)cc1 (stereo not given)
0.8,·,CCOCCCN1CC(C(=O)NCCc2ccc(C)cc2)CC1=O (stereo not given)
-0.8,i,Cc1cccc(C(OC(=O)c2ccco2)C(=O)NCc2ccccc2)n1 (stereo not given)
1.2,·,Cc1ccccc1C1CC(c2ccc(F)cc2)Nc2nc(N)nn21 (stereo not given)
-0.2,·,CCOC(=O)C1CCCN(C(=O)CN2C(=O)COc3ccc(C(C)(C)C)cc32)C1 (stereo not given)
-0.6,·,O=C(CSc1nnc(CNC(=O)c2cccs2)o1)NCc1ccc(F)cc1
0.8,i,c1n[nH]c(SCCCCSc2ncn[nH]2)n1
-0.8,i,CC(=O)c1ccc(OCC(O)CN2CCN(CCO)CC2)cc1 (stereo not given)
2.1,i,C=CCc1cc(C(=O)N2CCCCC2)ccc1O
-0.1,·,CCOC(=O)N1CCN(C(=O)c2sc3nc(-c4ccc(F)cc4)cn3c2C)CC1
-1.4,i,COc1cc(-c2nnc(SCC(=O)c3ccc(C)cc3)o2)cc(OC)c1OC
-2.4,·,COc1ccc(OCc2nnc3n2N=C(c2ccc(OC)cc2)CS3)cc1
0.0,i,CCOC(=O)C1CCN(c2c(NC3CCCCCCC3)c(=O)c2=O)CC1

# Continued:
26S disassembly,VCAM-1 rise,structure
-0.3,·,Cc1ccc(NC(=O)Cn2cccc2)c(Br)c1
1.2,·,Cn1c(=O)oc2cc(S(=O)(=O)NCCC(=O)NC3CCCC3)ccc21
6.5,·,O=C(O)CSC(NC(=O)c1cccnc1)(C(F)(F)F)C(F)(F)F
0.1,·,Cc1cc(NC(=O)C2CC(=O)OC2c2ccccc2)no1 (stereo not given)
1.8,i,COc1ccc(-c2nc(C#N)c(N3CCN(c4ccccc4)CC3)o2)cc1
1.1,·,O=C(Cc1c(C(=O)O)[nH]c2ccccc12)NCCN1CCN(c2ccccc2F)CC1
-4.0,·,CCOCCCNC(=O)c1[nH]c(C)c(C(C)=O)c1C
-1.1,·,O=c1c2ccccc2n(Cc2ccc(Cl)cc2)c(=O)n1Cc1ccco1
0.5,i,C=CCn1c(N)c(C(=O)OC(C)(C)C)c2nc3ccccc3nc21
-2.0,·,N#CCSc1nc2ccccc2c(=O)n1CCC(=O)NCCc1ccccc1
-3.6,·,Cn1c(Cn2c(=O)sc3ccccc32)nnc1SCC(=O)NCc1ccc(F)cc1
0.1,i,C=CCc1ccccc1OCCCCN1CCCC1
0.6,·,CCOc1ccc(N(CC(=O)NC2CCCC2)S(=O)(=O)c2c(C)noc2C)cc1
1.1,·,COc1ccc(-c2cc(C(F)(F)F)nc(N3CCN(c4ccccc4)CC3)n2)cc1OC
2.7,·,CC(c1cccnc1)N(C(=O)Nc1ccccc1)C1CCCCC1 (stereo not given)
-1.4,·,CCC(=O)c1ccc(N2CCN(C(=O)c3ccc(Br)cc3)CC2)c(F)c1
-0.8,i,O=C(Cn1cnc2c(nnn2-c2ccc(F)cc2)c1=O)NCc1ccco1
-1.4,i,COc1ccc(OCC(=O)Nc2ccc(N3CCOCC3)c(Cl)c2)cc1
1.0,·,COc1ccccc1S(=O)(=O)Cc1ccc(C(=O)N2CCCC2)o1

# Among those listed so far, these contain two or more sulfur atoms.
26S disassembly,VCAM-1 rise,structure
-0.3,·,CC1CCCN(C(=O)CSCC(=O)N=c2sc3ccccc3n2C)C1 (stereo not given)
-1.7,·,CCOC(=O)c1sc(=S)n(-c2cccc(OC)c2)c1N
-0.7,i,O=C(CSc1nnc(Cn2c(=O)sc3ccccc32)n1-c1ccccc1)NCC1CCCO1 (stereo not given)
-0.8,·,CC(C)(C)n1nc2c(c1NC(=O)c1cccs1)CS(=O)C2 (stereo not given)
0.1,i,Nc1nonc1NC(=O)CSc1nc2ccccc2s1
3.8,·,CCC1CCCCN1CCNC(=O)CNS(=O)(=O)c1ccc2nc(C)sc2c1 (stereo not given)
?,i,Cc1ccc(S(=O)(=O)c2nc(-c3ccco3)oc2SCC(=O)NCC2CCCO2)cc1 (stereo not given)
0.2,·,CSc1sc(C)cc1C1C(C#N)=C(N)N(c2cccnc2)C2=C1C(=O)CC(C)(C)C2 (stereo not given)
0.3,·,CCC(=O)N1c2ccc(S(=O)(=O)CCC(=O)Nc3nccs3)cc2CC1C (stereo not given)
-6.3,·,Cn1c(Cn2c(=O)sc3ccccc32)nnc1SCc1ccccc1
-0.4,·,Cc1ccc(NC(=O)CNS(=O)(=O)c2cccs2)cc1F
-1.2,·,CCOC(=O)N1CCC(n2c(SCC(=O)Nc3nccs3)nc3ccsc3c2=O)CC1
-0.6,·,O=C(CSc1nnc(CNC(=O)c2cccs2)o1)NCc1ccc(F)cc1
0.8,i,c1n[nH]c(SCCCCSc2ncn[nH]2)n1
-3.6,·,Cn1c(Cn2c(=O)sc3ccccc32)nnc1SCC(=O)NCc1ccc(F)cc1
